Vaccinia Venus: vaccinia inhibition (Venus reporter); 0.46% of 330,000 active; Potency, µM (titrated, usually from 36.5 µM), for inactives: at the highest dose activity change, negative = inhibition, most hits filed as inhibitors; AID 720580; Vaccinia virus Venus reporter expression, fluorescence; active means well fitted inhibition curve with a large enough effect; inconclusive means small, poorly fitted or top-dose-only effect; inactive means no such curve, though single readings can be large or run the other way; tested in A549 cells; note: nearly all actives have a fitted effect of over 30% in size; inactives centre near -10
Vaccinia mCherry: inhibitors of vaccinia virus infection (mCherry reporter signal) | Vaccinia virus mCherry reporter infection, fluorescence; about a quarter of the inactives have no number | Potency, µM (series often up to 36.5 µM), for inactives: at the top dose activity change, negative = inhibition, hits mostly inhibitors | 0.63% of 310,000 active | AID 720579; active = well fitted inhibition curve with a large enough effect; inconclusive = small, poorly fitted or top-dose-only effect; inactive = no such curve, though single readings can be large or run the other way; tested in A549 cells; note: nearly all actives have a fitted effect of over 35% in size; inactives centre near -10
* marks the source's active call; other numbers are inactive results; i = inactive; ? = inconclusive; nt = not tested or not shown; [ ] = another dose, or the depositor's remark. % is set by controls: 0 for no effect and ±100 for the full control effect; potency is the fitted concentration of half-maximal effect.

Order of results – Vaccinia Venus | Vaccinia mCherry
CCc1ccc(-c2ccc(C(=O)Oc3ccc(Br)cc3)cc2)nc1
    -9% | -8%
Cc1ccc(C)c2[nH]c(=O)c(CCNC(=O)c3ccc(S(=O)(=O)N(C)C)cc3)cc12
    -20% | i
CCOC(=O)C1=C(C)OC(=Cc2ccccc2)C1=O
    1% | i
COc1ccc(CCN2CC(C(=O)N(C)CC(=O)Nc3ccc(F)c(F)c3F)CC2=O)cc1OC (stereo not given)
    -5% | -12%
CCOC(=O)Cc1csc(NC(=O)Cn2cnc3c2c(=O)n(C)c(=O)n3C)n1
    1% | -3%
O=C(Nc1nc2c(s1)CN(Cc1ccccc1)CC2)C1CCCC1
    -6% | -5%
O=C1C(c2ccccc2)c2ccccc2N1Cc1ccccc1 (stereo not given)
    1% | i
COC(=O)c1ccc(NC(=O)CSc2nc3cc4ccccc4cc3[nH]2)cc1
    1% | -19%
COC(=O)c1ccccc1NC(=O)Cc1noc2ccc(C)cc12
    -3% | 2%
COc1ccc(Cl)cc1C(=O)NNC(=O)COC(=O)CCN=C1NS(=O)(=O)c2ccccc21
    -14% | i
O=C(c1cccs1)N1CCCC(N2CCN(c3cccc(C(F)(F)F)c3)CC2)C1 (stereo not given)
    -14% | -27%
Cc1ccc2c(c1)CC[C@H]1CC(=O)CC[C@@]21C
    -13% | -18%
CCOC(=O)C1CCC(CNCc2ccc(Cl)cc2)CC1 (stereo not given)
    -4% | i
NC(=O)NN=C1CCn2cccc21
    -10% | -14%
O=C(Nc1ccc2c(c1)OCO2)c1cc(-c2ccc(Cl)cc2)on1
    8% | -9%
CC(C)(C)OC(=O)N1CCC(c2c(C(=O)NCc3ccco3)cnn2-c2ccc(F)cc2)CC1
    -13% | -7%
Cc1ccccc1C1(CC(=O)N2CCCC2c2nccs2)CC(=O)N(C2CCCC2)C1=O (stereo not given)
    -22% | i
Cc1c(NC(=O)c2ccc(NC(=O)C3CC3)cc2)cccc1C(=O)O
    2% | -24%
COCCNc1ncnc2ccc(-c3ccccc3CN(C)C)cc12
    0% | 3%
O=[N+]([O-])c1ccc(/C=C/c2ccc3cccnc3c2)cc1
    -27% | 37%[activator]
CCOC(=O)c1ccc(NC(=O)c2ccc(CN3CCc4ccccc4C3)cc2)cc1
    -12% | -12%
O=C(COc1ccc(S(=O)(=O)N2CCCC2)cc1Cl)NCc1ccco1
    -11% | -13%
COc1cc(OC)c(NC(=O)Cn2cnc3c(nc4n3CCCCC4)c2=O)cc1Cl
    -1% | -7%
O=C(NCCN1CCOCC1)Nc1ccc(Cl)cc1
    -1% | -7%
O=C1NC(=S)N/C1=C/C=C/c1ccccc1
    -9% | -14%
Cc1ccc(N2CCN(S(=O)(=O)c3ccc4oc(=O)ccc4c3)CC2)cc1Cl
    12% | 12%
COc1ccc(CCNC(=O)/C(C#N)=C2\N=C(NC(=O)c3ccco3)c3ccccc32)cc1
    5% | i
CC(=O)OC1CC2C(C)(C)C(=O)C3OC3[C@]2(C)C2CC[C@@]3(C)C(c4ccoc4)OC(=O)C4OC43[C@]12C (stereo not given in full)
    -14% | -5%
O=c1c2c(nc3nc(NCc4cccc5ccccc45)[nH]n13)CCC2
    0% | -4%
CCN(C(=O)Cn1c(C(=O)OC)cc2sccc21)c1cccc(C)c1
    -10% | -16%
O=C(CSc1nc2ccccc2c(=O)n1-c1ccc(F)cc1)Nc1cc(S(=O)(=O)N2CCOCC2)ccc1Cl
    -4% | -11%
Cc1ccc2[nH]c(=O)c(CN(CCCO)S(=O)(=O)c3cccc4nsnc34)cc2c1
    -11% | -4%
COc1ccc(CC(=O)NNC(=O)c2ccc(Br)o2)cc1
    -8% | i
CC(C)c1ccccc1OCC(O)CN(CC(O)COc1cccc2ccccc12)C(C)C (stereo not given)
    ? | ?
COCC(C)NC(=O)c1cc(OC)cc(OC)c1 (stereo not given)
    -4% | i
COC(=O)C1CCN(C(=O)Nc2ccc(OC)cc2)CC1
    -8% | -9%
COc1ccc(CC(=O)Nc2ccc(N(C)C)c3ccccc23)cc1
    -10% | -23%
O=C(N/C(=C\c1ccccc1)C(=O)N1CCOCC1)c1ccc(Br)o1
    0% | -1%
Cc1ccc(S(=O)(=O)N/N=C\c2ccc3c(c2)OCO3)cc1C
    -12% | -20%
Cc1ccc(NC(=O)c2ncn(CCCNCC3CCCCC3)n2)cc1C
    -22% | -8%
CC(C)(CO)NC(=O)c1ccc2c(c1)C(=O)c1ccccc1-2
    -11% | i
CC(C)c1ccccc1NC(=S)NC1CCN(Cc2ccccc2)CC1
    -20% | -24%
N#Cc1c(N)n(C2CCCCC2)c2nc3ccccc3nc12
    ? | nt
Cc1ccnc(N2CCN(C(=O)CSc3nc4ccccc4nc3N3CCCCC3)CC2)c1
    -1% | -11%
S=c1nc[nH]c2c1ncn2-c1ccc(Cl)cc1
    2% | -15%
Cc1c(CN2CCN(C)C(CCO)C2)[nH]c2c(Cl)cccc12 (stereo not given)
    -9% | -17%
CC(C)(C)NC(=O)CN(C(=O)C(=O)Nc1ccc2c(c1)OCCO2)C(C)(C)C
    -9% | -8%
Cc1ccc(NC(=O)C(Cc2c[nH]c3ccccc23)NC(=O)OC(C)(C)C)c(C)c1 (stereo not given)
    -30% | ?
N#Cc1c(SCC(=O)Nc2ccc(C(F)(F)F)cc2)sc2c(O)cc(=O)[nH]c12
    -6% | -2%
O=C(CC(=O)NC1CCCCC1)N/N=C/c1ccccc1[N+](=O)[O-]
    0% | ?

Compounds from the list above with a CF3 group (2):
Order of results – Vaccinia Venus | Vaccinia mCherry
O=C(c1cccs1)N1CCCC(N2CCN(c3cccc(C(F)(F)F)c3)CC2)C1 (stereo not given)
    -14% | -27%
N#Cc1c(SCC(=O)Nc2ccc(C(F)(F)F)cc2)sc2c(O)cc(=O)[nH]c12
    -6% | -2%

More entries.
Order of results – Vaccinia Venus | Vaccinia mCherry
Cc1ccccc1C(=O)Nc1cccc(C(=O)N/N=C/c2ccc3c(c2)OCO3)c1
    -5% | -11%
Cc1nc2ccccc2n1CCc1nc2c3ccccc3nc(SCC(=O)Nc3ccc(Br)cc3F)n2n1
    2% | 1%
C=CCN(Cc1cn(C)nc1-c1cccc(Cl)c1)C1CCS(=O)(=O)C1 (stereo not given)
    -2% | i
O=C(COC(=O)CC(c1ccccc1)c1ccccc1)NCc1ccc(Cl)cc1
    -12% | -6%
CSCCC(c1nc2ccccc2[nH]1)n1c(/C=C/c2ccc(F)c(F)c2)nc2ccccc21 (stereo not given)
    -2% | i
CCc1cccc2sc(N3CCN(C(=O)c4cc5ccccc5cc4OC)CC3)nc12
    -26% | -8%
COc1cc(CN2C[C@@H](CO)O[C@@H](n3cnc4c(Nc5ccccc5)ncnc43)C2)cc(OC)c1OC
    4% | -4%
CC(=O)N1N=C(c2ccccc2)CC1c1cn(C)c2ccccc12 (stereo not given)
    -19% | -3%
Cc1cc2c(cc1C)-n1nnnc1C(N1CCCC1)C(=O)N2 (stereo not given)
    -6% | -6%
CN(C(=O)COC(=O)c1cc(Br)c(Br)s1)C1CCS(=O)(=O)C1 (stereo not given)
    -13% | -11%

Next part.
compound,Vaccinia Venus,Vaccinia mCherry
C=CCOc1ccc2oc(=O)cc(C)c2c1,-3%,i
CC1(C)C2CCC1(C)C(OCC[N+](C)(C)CC(=O)OC1CCCCC1)C2 (stereo not given),-22%,-6%
CCc1ccc(OCC(=O)Nc2ccc3c(c2)OCCO3)cc1,-6%,?
CCOCc1c(C(=O)NC2CCCCCC2)oc2ccccc12,-12%,i
Cc1cc(F)ccc1NC(=O)CCS(=O)(=O)c1cc2c(cc1C)NC(=O)CO2,-3%,-3%
CN(Cc1ccccn1)Cc1nc(Cc2ccccc2Cl)no1,-12%,-2%
Nc1nonc1-n1nnc(C(=O)N/N=C/c2ccco2)c1-c1ccccc1,-3%,-25%
CCOC(=O)CC1C(=O)NCCN1C(=S)NC(=O)c1ccc(C)c(Br)c1 (stereo not given),-15%,i
COc1ccc(C(=O)Cc2cc(OC)c(OC)cc2[N+](=O)[O-])c(OC)c1,-12%,i
COc1ccc(-c2noc(-c3cc(C(C)C)[nH]n3)n2)cc1,-8%[7.34 µM],-9%[7.34 µM]
O=C(CCCC(=O)OCC(F)(F)C(F)F)Nc1ccc(NC(=O)CCCC(=O)OCC(F)(F)C(F)F)cc1,-14%,-7%
COc1ccc(-n2nc3ccc(NC(=O)c4c(OC)cccc4OC)cc3n2)cc1,-24%,i
Cc1ccccc1NCc1nnc2n1CCCCC2,-9%,-1%
COc1cccc(-c2cncnc2NCCc2cnc[nH]2)c1,-5%,i
COc1cccc(/C=C/C(=O)OCC(=O)Nc2cccc(S(=O)(=O)N(C)C)c2)c1,-21%,-15%
COc1cc(CNCCc2ccc(S(N)(=O)=O)cc2)ccc1OCC(=O)N1CCCCC1,-5%,-11%
CCN1CCN(c2ccc(S(=O)(=O)N3CCOCC3)cc2NC(=O)C(C)Oc2cccc(Cl)c2)CC1 (stereo not given),-24%,-29%
Nc1nnnn1/N=C/c1cccs1,-1%,-4%
COc1cc(/C=C(\C#N)C(=O)Nc2cccc(C(=O)O)c2)ccc1OCc1ccc(F)cc1,-1%,-10%
CCc1cc(C(=O)Nc2ccc(OC)nc2)sc1C,-12%,-22%

Sorted by number of heavy atoms (highest first): part of the list above
compound,Vaccinia Venus,Vaccinia mCherry
CN(Cc1ccccn1)Cc1nc(Cc2ccccc2Cl)no1,-12%,-2%
CCc1cc(C(=O)Nc2ccc(OC)nc2)sc1C,-12%,-22%
C=CCOc1ccc2oc(=O)cc(C)c2c1,-3%,i

Other results follow:
compound,Vaccinia Venus,Vaccinia mCherry
N#C/C(=C\c1ccc(C(=O)O)cc1)c1ccccn1,-11%,-2%
Cn1nc(-c2ccccc2)nc2c(=O)n(C)c(=O)nc1-2,1µM*,1µM*
CCC(C)NC(=S)Nc1ccccc1OC (stereo not given),-12%,-10%
Cc1ccccc1-c1cc(C(=O)NCc2cccs2)nn1CC1CC(c2cccc([N+](=O)[O-])c2)=NO1 (stereo not given),?,-4%
CC(=O)c1cc2c(cc1NC(=O)Cn1nc(-c3ccc(C)cc3)ccc1=O)OCO2,-4%,?
CNc1cccc(-c2ccc(C(=O)N3CCOCC3)cc2)n1,3%,i
CCOC(=O)c1c(C)nc(C)c(C(=O)OCC)c1-c1cccnc1,-9%,i
COc1ccc(F)cc1S(=O)(=O)NC1CCCCCC1,-28%,-16%
CCOc1ccccc1NC(=O)c1ccc(OCC)c([N+](=O)[O-])c1,-10%,i
N#CC1=C(N)Oc2c(ccc3ccccc23)C1c1ccsc1 (stereo not given),-15%,-26%
CC(C)C1C(=O)N(Cc2cn(Cc3ccco3)nn2)CCS(=O)(=O)N1Cc1ccc(-c2ccc(F)cc2)cc1 (stereo not given),?,-12%
COc1cc(C)cc(C(=O)O)c1C1=C(O)c2cccc(O)c2C(=O)C1=O,-1%,2%
Cn1c(CO)cnc1SCc1ccc(Cl)cc1,-12%,nt
CCn1c(-c2cccc(Br)c2)n[nH]c1=S,-11%,nt
Cc1ccccc1OCC(=O)Nc1ccc(C(=O)OCc2cc(=O)n3ccsc3n2)cc1,-24%,-27%
CN(C)c1cccc(CNC(=O)c2csc([C@@H]3O[C@H](CO)[C@@H](O)[C@H]3O)n2)c1,1%,-4%
CCOC(=O)N1CCC(NS(=O)(=O)c2cc3c(cc2C)NC(=O)CO3)CC1,-18%,-17%
COc1ccc(Cl)cc1NC(=O)COC(C)=O,-6%,i
N#Cc1c(N2CCCCC2)nc(N)c2c(N)nc3c(c12)CC(c1ccccc1)O3 (stereo not given),-28%,?
O=C(NCCc1c[nH]c2ccccc12)/C(=C\c1ccco1)NC(=O)c1ccco1,-9%,-3%
O=C(Cc1csc(Nc2nc(=S)[nH]c3ccccc23)n1)N1CCN(c2cccc(C(F)(F)F)c2)CC1,-4%,-14%
Cc1ccc(C(=O)Nc2cc(-c3ccn[nH]3)c(C)n(N)c2=O)cc1,-4%,-7%
COc1ccccc1N1CCN(C(=O)c2ccc(N3CCCC3=O)cc2)CC1,-15%,nt
Cc1ccsc1/C=N/NC(=O)c1nnn(-c2nonc2N)c1CSc1ccccc1,0%[7.34 µM],i[7.34 µM]
COCCNc1oc(-c2ccc(COc3ccc(OC)cc3)o2)nc1C#N,-2%,-10%
C[C@@H]1CN([C@H](C)CO)C(=O)CCCn2nncc2CO[C@H]1CN(C)C(=O)c1cc(-c2ccccc2)on1,-9%,-16%
COc1cc(OC)c(C(=O)OCC(=O)N2CCN(S(=O)(=O)c3ccc(C)cc3C)CC2)cc1OC,-16%,-19%
CCOc1ccc(S(=O)(=O)N(CC(=O)Nc2cc(C)on2)Cc2ccccc2Cl)cc1,-23%,-8%
COc1ccc(S(=O)(=O)N2CCCCC2)cc1NC(=O)CCCOc1ccc(C)cc1,-4%,i
NC(=O)c1ccccc1NC(=O)CC12CC3CC(CC(Br)(C3)C1)C2,-1%,-17%
Cc1ccc(Cn2c(SCC(=O)N(C)C3CCS(=O)(=O)C3)nc3ccccc3c2=O)cc1 (stereo not given),-13%,i
O=C(Nc1ccc(F)cc1F)c1noc2c1CCc1ccccc1-2,3%,-12%
CCN(C(=O)COC(=O)c1ccccc1Oc1ccccc1)c1c(N)n(Cc2ccccc2)c(=O)[nH]c1=O,-18%,-24%
CC(=O)Nc1ccc(C(=O)N/C(=C\c2ccccc2)C(=O)Nc2cccc(C(=O)O)c2)cc1,2%,25%
